RGS16-Gao: modulates binding between human RGS16 and Galphao. O15492+P09471. bead-based flow cytometry RGS16-Galphao binding, fluorescence; actives lie on both sides. binding response (% of control), % at 10 µM. actives 0.38% (n = 220,000);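 active = below 25% or above 175%, edge rows of some plates excepted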;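 also: Galphao activated by GDP with aluminum fluoride before binding; 100% = wells without compound and 0% = beads without RGS; some results beyond the cut were filed as inactive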
Target sequence (O15492 whole entry, looked up): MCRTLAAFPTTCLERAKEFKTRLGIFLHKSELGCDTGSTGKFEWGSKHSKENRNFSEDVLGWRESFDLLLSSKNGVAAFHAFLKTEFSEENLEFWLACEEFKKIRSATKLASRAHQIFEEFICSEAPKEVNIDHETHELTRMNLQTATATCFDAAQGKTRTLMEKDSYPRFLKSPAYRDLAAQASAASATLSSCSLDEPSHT
Target sequence (P09471 whole entry, looked up): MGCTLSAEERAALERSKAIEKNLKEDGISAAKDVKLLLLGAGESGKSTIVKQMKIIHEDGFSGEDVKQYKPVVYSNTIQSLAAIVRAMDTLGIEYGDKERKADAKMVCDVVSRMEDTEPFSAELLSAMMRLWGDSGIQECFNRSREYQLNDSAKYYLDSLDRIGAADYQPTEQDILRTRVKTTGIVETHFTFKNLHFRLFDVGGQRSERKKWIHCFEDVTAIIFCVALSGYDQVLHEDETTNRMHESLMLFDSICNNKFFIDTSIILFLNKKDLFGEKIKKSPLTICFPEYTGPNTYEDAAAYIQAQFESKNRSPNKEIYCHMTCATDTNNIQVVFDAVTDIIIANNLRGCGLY
GALR2 agonist: GALR2 (human) receptor agonism; O43603; activation, %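 (tested at 5 µM)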; GALR2-expressing cells, agonist activation read-out; AID 803; actives 0.48% (n = 140,000);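 active = above mean plus 3 SD of all compounds, about 5% in these data, not always enough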;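 also: 0% = vehicle buffer wells and 100% = reference agonist at full effect; tested in CHO reporter cells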
Target sequence (O43603 whole entry, looked up): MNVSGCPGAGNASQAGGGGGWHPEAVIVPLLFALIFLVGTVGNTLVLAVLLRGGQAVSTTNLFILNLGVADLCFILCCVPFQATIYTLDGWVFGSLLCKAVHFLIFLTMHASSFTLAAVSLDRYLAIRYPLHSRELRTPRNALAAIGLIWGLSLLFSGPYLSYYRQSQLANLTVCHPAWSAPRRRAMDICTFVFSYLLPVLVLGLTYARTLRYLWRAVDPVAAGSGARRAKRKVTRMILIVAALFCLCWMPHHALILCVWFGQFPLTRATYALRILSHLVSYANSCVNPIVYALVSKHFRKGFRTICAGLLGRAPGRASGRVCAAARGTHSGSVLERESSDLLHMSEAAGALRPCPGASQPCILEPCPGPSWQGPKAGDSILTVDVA
HSV augment: HSV replication enhancement | HSV replication augmentation in cells, fold increase | maximum fold increase | actives 0.005% (n = 220,000) | AID 1956;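 active = peak rise of 1.5-fold or more in the series; tested in PC3 cells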;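 also: first round at 10 µM; read as green reporter fluorescence; hits show the peak of a series up to 25 µM; 1 = signal of infected wells without compound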
Insulin prom inh: TRM-6 insulin promoter activity inhibition; TRM-6 cells (human fetal islet line), insulin promoter-eGFP reporter, imaging; reporter expression induced with tamoxifen; inhibition, % at 2 µM; actives 0.9% (n = 130,000); AID 1273;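 active = inhibition above the mean plus 3 SD, with well images judged a real hit on visual review, cut at about 60% in these data, passing the limit was not always enough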
PKD1 kinase inh: blocks activity of human protein kinase D1; PKD1 kinase fluorescence polarization assay; inhibition, %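 (about 10 µM by stock and volumes)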; actives 0.056% (n = 200,000); AID 797;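 active = inhibition of 50% or more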;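 also: controls were vehicle for no effect and a reference inhibitor for full effect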
Insulin prom inh cell count: further read-out of Insulin prom inh, marked with its call; normalized cell count, %; measured here: cell count, toxicity; reference of the scale not given here;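 cells exposed to compound for 48 h; stained nuclei by imaging scaled within each plate; lower means fewer cells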
HSV augment primary fold: further read-out of HSV augment, marked with its call; fold increase; compound at 10 µM; measured here: primary screen fold increase 10 uM; tested in PC3 cells;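 GFP signal in the first replicate; 1 = infected wells without compound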
An asterisk follows results filed as active; i = inactive; nt = no result given; & = joins results of further samples.

SMILES	HSV augment primary fold	GALR2 agonist	RGS16-Gao	HSV augment	Insulin prom inh	Insulin prom inh cell count	PKD1 kinase inh
CC(C)(C)NC(=O)C(c1ccncc1)N(C(=O)c1csnn1)C1CC1 (stereo unspecified)	0.87	0.5	102	i	39	119	1
N#Cc1c(-c2ccc(Br)cc2)nc2n(c1=O)CCCS2	0.94	-1.3	103	i	38	131	-7
CCC(=O)N(CCc1ccccc1C)Cc1cc2cc3c(cc2[nH]c1=O)OCO3	0.89	-1.3	90	i	21	115	3
COc1cc2nc(N3CCN(C(=O)C4CCCO4)CC3)nc(N)c2cc1OC (stereo unspecified)	0.83&0.81	0.1&-0.5	67&69&97	i	18	88	-7&-1
Cc1ccc(C(=O)N/C(=C/c2ccc(Cl)cc2)C(=O)Nc2cccc(C(=O)O)c2)cc1	1.1	-1.2	111	i	11	135	-17
CCNC(=O)N(C)c1nncnc1C(=O)NC	nt	-2.5	104	nt	-33	121	-1
O=C(Cc1cccs1)N/N=C/C(Br)=C/c1ccccc1	1	-2.0	102	i	nt	nt	10
COc1ccc(NC(=O)CSc2ncccc2C(=O)OC(C)C)cc1OC	0.7	-2.5	76	i	30	144	-1
COc1ccccc1N1CCN(C(=O)c2ccc(Cl)c(S(=O)(=O)NCc3ccco3)c2)CC1	0.57	-0.7	103	i	0	86	-2
CCCCCCCCNC(CO)(CO)CO	0.8	nt	101	i	nt	nt	nt
CCn1c(=O)c(NC(=O)c2ccccc2)c2n(c1=S)CCCCC2	1	-0.7	97	i	nt	nt	0
CN(C)CCNC(=O)c1ccc(Sc2ccc(Br)cc2)c([N+](=O)[O-])c1	0.76	nt	106	i	nt	nt	7
CC1SCC(NC(=O)c2cccc(Cl)c2)CS1 (stereo unspecified)	0.71	nt	98	i	nt	nt	nt
Cc1ncc(S(=O)(=O)c2ccccc2)c(-c2ccc(Cl)cc2Cl)n1	0.95	-0.2	96	i	-15	115	-9
O=C(CN1CCC(n2nnc3cc(C(F)(F)F)ccc32)CC1)Nc1ccc2c(c1)OCCO2	0.87	0.7	104	i	27	86	11
Cc1ccccc1NC(=O)C1CC(Cl)=CCC1C(=O)O (stereo unspecified)	0.9	-2.4	103	i	50	105	-6
COCc1nnc(NC(=O)c2cccs2)s1	1.1	-2.1	102	i	-3	113	-5
O=C(O)CCSc1nc2ccccc2s1	0.95	-0.1	89	i	5	69	4
CC(NC(=O)c1nn(C)c(=O)c2ccccc12)c1ccc(F)cc1 (stereo unspecified)	0.88	-1.2	101	i	nt	nt	-3
COc1cccc(C2=N/C(=C\N(C)C)C(=O)O2)c1	0.88	0.5	99	i	16	91	4
N#CCCN(C1CCCCC1)S(=O)(=O)c1cccc2nsnc12	0.82	-1.1	72	i	-6	71	-7
Oc1cccc(-c2nc3ccccc3s2)c1	nt	-1.4	80	nt	40	138	-8
CCOC(=O)NC1(C(F)(F)F)NC(=O)N(c2cccc(C(F)(F)F)c2)C1=O (stereo unspecified)	1	-2.1	103	i	3	57	-6
CC#CCN1c2ccccc2[C@]23C[C@@H](C(=O)OC)N(C(=O)C4CCC4)C2=NC(C(=O)OC)=C(C(=O)OC)[C@H]13	0.84	nt	98	i	nt	nt	nt
N#C/C(=C\c1ccc(/C=C(/C#N)c2nn(CCO)c(N)c2C#N)cc1)c1nn(CCO)c(N)c1C#N	1.2	-1.4	98	i	nt	nt	0
COc1ccc2cnn(-c3ccc(OC(F)(F)Cl)cc3)c(=O)c2c1OC	0.95	nt	101	i	nt	nt	nt
CC1(C)CC(=O)C2=C(C1)Nc1ncnn1C2c1cccs1 (stereo unspecified)	0.99	nt	119	i	50	60	-1
O=C(CCN1C(=O)/C(=C/c2ccc3c(c2)OCO3)SC1=S)NNC(=O)c1cccnc1	0.98	nt	108	i	67	91	2
C/C(=C\C(=O)c1ccc(Br)cc1)Nc1cccc(Cl)c1	0.77	-0.5	nt	i	-4	74	5
COc1ccc(C(=O)c2c[nH]c(C(=O)NCc3cccs3)c2)cc1	nt	-1.6	90	nt	nt	nt	-14
CCOC(=O)c1[nH]c2ccccc2c1NC(=O)c1ccc2c(c1)OCO2	0.78	-0.2	79	i	nt	nt	-4
CCN(CC)c1nc(-c2ccccc2)cc(C(F)(F)F)c1C#N	0.85	15*	91	i	3	110	-4
Cc1cc(C)cc(N(C(=O)c2ccc3c(c2)OCO3)C2C=CS(=O)(=O)C2)c1 (stereo unspecified)	1.1	-0.1	100	i	-20	76	-3
S=C(NCc1ccco1)N/N=C/c1ccc(Cl)cc1	0.93	0.1	48	i	-43	126	-8
CCc1nc(N2CCCCC2C(=O)O)c2oc3ccccc3c2n1 (stereo unspecified)	1	nt	109	i	nt	nt	nt
COc1cc(/C=C/C(=O)OCC(=O)NC(=O)NC(C)C)ccc1O	0.93	nt	103	i	nt	nt	nt
COC(=O)c1ccc(NC(=O)CO/N=C2\CCCc3nonc32)cc1	0.97	nt	98	i	-87	144	-7
CC(C)[C@H](NC(=O)c1ccccc1Cl)C(=O)Nc1nc(-c2ccccn2)cs1	0.93	nt	98	i	nt	nt	2
CCOc1ccc(-n2cc(-c3ccccc3)c3c(N4CCOCC4)ncnc32)cc1	0.82	nt	99	i	-20	136	2
C/C=C/Cn1c(SC)nc2c1c(=O)[nH]c(=O)n2C	0.82	-0.5	91	i	nt	nt	-1
CCCCNC(=O)CN(c1cccc(F)c1)S(C)(=O)=O	0.78	-1.1	101	i	71	93	1
O=C(NCc1ccc2c(c1)OCO2)C1(S(=O)(=O)c2ccccc2)CC1	1	-2.3	97	i	93*	155*	-13
CCc1ccccc1NC(=O)C1c2ccccc2Oc2ccccc21	0.93	-1.8	117	i	25	74	-4
COc1ccc(N/C=C(/C(C)=O)c2ccccc2)cc1	0.92	-2.4	101	i	-3	97	-6
Cc1ccc(-n2nnnc2SCC(=O)Nc2cccnc2Cl)cc1	0.97	-0.7	107	i	36	152	-7
O=C(/C=C/c1cccc([N+](=O)[O-])c1)NC(=S)Nc1ccc(CN2CCOCC2)cc1	0.98	-0.4	107	i	26	50	-9
Cc1ccc(CNC(=O)C(OC(=O)c2ccco2)C(C)C)cc1 (stereo unspecified)	0.89	-1.9	82	i	-33	93	-8
COc1ccc(C(=O)Nc2cnn(Cc3c(F)cccc3Cl)c2)cc1OC	0.93	nt	104	i	nt	nt	nt
Cc1c(C(=O)NCCN2CCOCC2)oc2ccc(S(=O)(=O)N3CCCCCC3)cc12	0.85	-0.7	101	i	9	116	1
Cc1ccc(-n2c3c(c(=O)[nH]c2=S)C(C(F)(F)F)(C(F)(F)F)NC(=O)N3)cc1	0.94	-1.0	57	i	-3	137	-6
CC(C)(C)c1nnc(NC(=O)Cc2ccccc2[N+](=O)[O-])s1	0.94	0.2	98	i	11	118	-1
COc1ccccc1NC(=O)CSc1nnc(-c2ccccc2)o1	0.99	-1.4	102	i	nt	nt	9
CCN(CC)S(=O)(=O)c1cccc(NC(=O)c2cc(-c3cccs3)nn2-c2ccccc2)c1	0.81	-2.0	96	i	-4	100	-5
CCCC(=O)Nc1c(-c2ccccc2)c(=O)c(C)nn1-c1ccc(Cl)cc1	1.2	-0.4	119	i	-18	71	-8
COc1cccc(NC(=O)COC(=O)c2ccco2)c1	1	-2.1	103	i	-10	141	0
CCO[C@H]1OC(C(=O)NC2CC2)=C[C@@H](c2ccc(Br)cc2)[C@@H]1CCCO	0.81	nt	102	i	nt	nt	9
O=C(Nc1cccnc1)c1ccc(S(=O)(=O)c2ccc(Cl)cc2)cc1	0.92	nt	101	i	-25	143	2
COC(=O)c1ccc(-c2nn(C)c(=O)c3ccccc23)cc1	0.94	-2.2	108	i	nt	nt	-12
CCOC(=O)C1=C(C)NC(=O)C(C(N)=O)C12CCCC2 (stereo unspecified)	0.99	-1.6	102	i	nt	nt	-4
O=C(Oc1cccnc1)c1cccc(Cl)c1	0.91	-2.6	111	i	11	73	-2

Entries above with a COOH group, in the order listed:
SMILES	HSV augment primary fold	GALR2 agonist	RGS16-Gao	HSV augment	Insulin prom inh	Insulin prom inh cell count	PKD1 kinase inh
Cc1ccc(C(=O)N/C(=C/c2ccc(Cl)cc2)C(=O)Nc2cccc(C(=O)O)c2)cc1	1.1	-1.2	111	i	11	135	-17
Cc1ccccc1NC(=O)C1CC(Cl)=CCC1C(=O)O (stereo unspecified)	0.9	-2.4	103	i	50	105	-6
O=C(O)CCSc1nc2ccccc2s1	0.95	-0.1	89	i	5	69	4
CCc1nc(N2CCCCC2C(=O)O)c2oc3ccccc3c2n1 (stereo unspecified)	1	nt	109	i	nt	nt	nt

Carrying on.
SMILES	HSV augment primary fold	GALR2 agonist	RGS16-Gao	HSV augment	Insulin prom inh	Insulin prom inh cell count	PKD1 kinase inh
Cc1ccc(C)c(NCc2ccccc2CO)c1	1	nt	64	i	nt	nt	-6
O=C(CCCCCN1C(=O)c2ccccc2C1=O)NCCc1nc2ccccc2[nH]1	0.99	-3.1	100	i	-53	121	-6
Cc1ccccc1-c1nsc(SCC(=O)Nc2ccc3c(c2)OCO3)n1	0.86	-2.4	100	i	13	108	4
COCCNC(=O)C(OC(=O)c1cccs1)c1ccccc1 (stereo unspecified)	0.83	-0.8	90	i	nt	nt	-4
C1CCCN(CCCCN2CCCCCC2)CC1	nt	-2.9	102	nt	-21	96	2
CCn1c(SCC(=O)N2CCN(c3ccc(F)cc3)CC2)nc2ccccc2c1=O	0.93	1.4	106	i	18	38	4
CCN1CCC(NC(=O)c2cc(OC)c(OC)cc2OC)CC1	1.3	-0.4	99	i	-41	263	0
COC(Cc1nnc(SC)n1-c1ccc(Cl)cc1)OC	0.85	-3.8	77	i	39	92	-5
Cc1csc(NC(=O)CCS(=O)(=O)c2ccc(Br)cc2)n1	1	-0.6	97	i	-30	124	1
Cc1ccc2cc(C3CC(c4ccco4)=NN3S(C)(=O)=O)c(Cl)nc2c1 (stereo unspecified)	1	nt	91	i	nt	nt	nt
COc1cccc(NC(=O)CCSc2ccc3ccccc3n2)c1	0.96	-0.4	134	i	-23	56	-4
COC(=O)C1=C(C)N(CCc2ccc(OC)c(OC)c2)C(=O)/C1=C\c1ccc(O)cc1	1.1	-0.7	96	i	60	96	-1
O=S(=O)(Nc1nc2c(s1)CCCC2)c1ccc(Br)cc1	0.85	-2.9	114	i	3	135	0
CCC(=O)N/N=C(\C)CC(=O)Nc1ccc2c(c1)OCCO2	0.95	nt	100	i	-71	116	-2
COc1cc(NC(=O)C2COc3ccccc3O2)c(OC)cc1Cl (stereo unspecified)	0.88	-2.0	139	i	29	161	-4
Cc1ccc(C(=O)COc2nc(C)nc3ccccc23)cc1	0.91	nt	110	i	nt	nt	2
NC(N)=NCCCc1cn(CC(=O)N2CCNCC2)nn1	0.94	nt	100	i	nt	nt	-2
CC(C)(C)NC(=O)C12CC3CC(CC(Cl)(C3)C1)C2	1.3	-0.2	102	i	nt	nt	2
CCOc1ccc(Cc2c(Cl)nc(N)nc2Cl)cc1	0.92	0.8	104	i	-25	86	-8
C(=N\Nc1ccccc1)/c1ccc(N2CCOCC2)cc1	1.1	-0.6	61	i	17	87	-8
Cc1ccc(-c2nnn(CC(=O)N(Cc3cccs3)C(C(=O)NC(C)(C)C)c3ccc(C)o3)n2)o1 (stereo unspecified)	0.89	-1.5	94	i	-170	82	6
Cc1ccccc1-c1nnn(C/C(N)=N/O)n1	1.2	nt	125	i	nt	nt	-2
Cc1cc(Nc2ccc(N3CCC(C)CC3)cc2)n2ncnc2n1	1.2	-0.3	98	i	-38	160	-14
Cc1cc(N2CCOCC2)nc(C(C)C)n1	1.1	nt	98	i	20	78	-3
COC(=O)c1ccc(NC(=S)N(Cc2cccnc2)Cc2ccco2)cc1	0.92	nt	101	i	17	122	1
COC(=O)c1cc(NC(=O)c2c(F)c(F)c(F)c(F)c2F)cc(C(=O)OC)c1	0.85	0.4	102	i	23	132	-10
Nc1c(C(=O)Nc2ccc(S(=O)(=O)N3CCCC3)cc2)sc2nc3ccc(OC(F)(F)F)cc3cc12	nt	18*	105	nt	-231	75	0
O=C(O)C1CCCCC1C(=O)NCc1cn2ccccc2n1 (stereo unspecified)	1.2	-2.3	110	i	nt	nt	-1
CON(C)c1nc(OCCNC(=O)OCc2ccc(Cl)cc2Cl)nc(N(C)C)n1	0.67	-3.2	94	i	-129	36	-5
